Assay outcomes from PubChem.
Sfp PPTase inh: Sfp phosphopantetheinyl transferase inhibition; Q9F4F7; Biochemical Sfp PPTase activity, qHTS; Potency, µM, for inactives: max response, negative = inhibition, most hits filed as inhibitors; hit rate 3.5% among 310,000; active means well fitted inhibition curve with a large enough effect; inconclusive means small, poorly fitted or top-dose-only effect, or another doubt; inactive means no such curve, though single readings can be large or run the other way;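 further: the enzyme is Sfp with the accession as filed and its product quenches rhodamine fluorescence; potency means the concentration at half of the fitted maximal effect; 0% = enzyme reaction without inhibitor and -100% = no enzyme wells; top concentration of the series not given in the record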
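Fluorescence-quenching assay with 15 nM Sfp, 5 uM rhodamine-CoA and 12.5 uM BHQ-2-labelled ybbR peptide in pH 7.6 Hepes/MgCl2 buffer. Enzyme was pre-incubated with compound for 15 min at room temperature. Rate was taken from the 30-min fluorescence change (525/598 nm).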
TRPV1 PAM: potentiators of human vanilloid receptor 1 (TRPV1). hit rate 0.02% among 320,000. Q8NER1. potentiation, % at 8.33 µM. TRPV1-expressing cells, Fluo-8 calcium influx, capsaicin EC20 potentiation; host cell line not named in the record; control for the full effect not named in the record. AID 540277; active means potentiation above 80%; inconclusive means 30% to 80%; inactive means below 30%; further: 0% is about no effect
Target sequence (Q8NER1 whole entry, looked up): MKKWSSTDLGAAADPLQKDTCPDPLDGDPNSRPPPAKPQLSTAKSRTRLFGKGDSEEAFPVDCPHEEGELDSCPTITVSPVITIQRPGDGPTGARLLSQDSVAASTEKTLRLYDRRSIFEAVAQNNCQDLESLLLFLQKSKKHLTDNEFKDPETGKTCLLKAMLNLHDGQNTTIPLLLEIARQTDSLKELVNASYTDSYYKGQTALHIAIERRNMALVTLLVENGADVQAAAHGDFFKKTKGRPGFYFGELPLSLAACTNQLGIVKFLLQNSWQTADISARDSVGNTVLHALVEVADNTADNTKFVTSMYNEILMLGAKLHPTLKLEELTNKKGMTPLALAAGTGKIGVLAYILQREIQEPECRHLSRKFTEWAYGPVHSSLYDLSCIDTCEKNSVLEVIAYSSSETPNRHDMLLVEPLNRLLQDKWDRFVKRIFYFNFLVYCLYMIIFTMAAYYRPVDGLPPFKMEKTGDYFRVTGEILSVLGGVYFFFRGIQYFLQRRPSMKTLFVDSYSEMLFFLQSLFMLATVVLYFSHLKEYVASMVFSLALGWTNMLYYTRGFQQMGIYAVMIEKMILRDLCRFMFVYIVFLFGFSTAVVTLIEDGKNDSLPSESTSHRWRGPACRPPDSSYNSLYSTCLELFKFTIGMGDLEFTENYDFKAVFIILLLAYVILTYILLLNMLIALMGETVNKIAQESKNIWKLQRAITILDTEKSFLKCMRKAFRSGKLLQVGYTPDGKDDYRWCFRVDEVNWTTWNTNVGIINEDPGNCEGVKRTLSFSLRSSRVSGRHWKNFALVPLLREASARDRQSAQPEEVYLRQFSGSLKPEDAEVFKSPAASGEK
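Fluo-8 calcium influx in TRPV1-expressing cells, kinetic read (ex 480/em 520 nm). Compound added and read 3 min for agonist activity, followed by capsaicin at EC20 final and 2 min further read for enhancement.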
gsp antagonist: antagonists of gsp mutant (McCune-Albright syndrome). hit rate 0.4% among 340,000. gsp-mutant cells, cAMP HTRF, 30 min; control for the full effect not named in the record. Potency, µM (doses to about 76.9 µM), inactives show at the top dose activity change, negative = inhibition, hits mostly inhibitors. AID 624288; active = falling curve of any shape with a large fitted effect; inconclusive = falling curve, mostly with a smaller effect; inactive = flat or rising curve; cell line not stated here;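 further: intracellular cAMP measured with PDE inhibitor Ro 20-1724 present during compound exposure; potency means the concentration at half of the fitted maximal effect; on the % scale 0 is the no-effect control and ±100 the full control effect; nearly all actives have a fitted effect of over 65% in size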
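Measurement of cellular cAMP by homogeneous time-resolved fluorescence following a 30 min compound exposure at 37C. The PDE inhibitor […] was present throughout; the assay buffer was DPBS with 0.05% BSA and 0.005% Tween 20.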
Menin-MLL FL inh: inhibitors of human menin-MLL interaction, wild-type MLL peptide. Fluorescence polarization, fluorescein-MLL peptide displacement from menin. FP activity change, % at 61.4 µM. 290,000 tested, under 10 active; inconclusive = falling polarisation curve, or a change in total fluorescence; inactive = total fluorescence flat and polarisation flat or rising; no compound was filed as active; the % refers to the polarisation; negative = inhibition;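 further: % of control where 0% means no effect; inhibitors lower the polarisation; unlabelled MLL peptide was the positive control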
gsp ag: gsp mutant agonism; gsp mutant cells, cAMP HTRF, 30 min; control for the full effect not named in the record; Potency, µM (highest dose often 76.9 µM), without a hit: at the highest dose activation (cAMP increase), usual class: activators; hit rate 0.13% among 340,000; AID 624287; active = well fitted activation curve with a large enough effect; inconclusive = small, poorly fitted or top-dose-only effect, or another doubt; inactive = no such curve, though single readings can be large or run the other way; cell line not stated here;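 further: phosphodiesterase inhibitor Ro 20-1724 added with compounds to block cAMP breakdown; potency means the concentration at half of the fitted maximal effect; nearly all actives have a fitted effect of over 60% in size; about a fifth of the inactives were tested at one dose only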
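Cells in DMEM/10% FBS with G418 were pretreated with compounds in DMSO plus […] (300 uM stock) for 30 min at 37C. cAMP was measured by HTRF (cAMP-d2 plus anti-cAMP antibody-K) after 30 min at room temperature.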
CtBP-E1A blk: blocks the CtBP interaction with E1A. AlphaScreen GST-E1A/His-CtBP binding, 1536-well; active compounds read low; control for the full effect not named in the record. hit rate 0.49% among 340,000. activity change, % (concentration not given with the values); in the data active means activity change below about -65%; inconclusive means about -30% to -65%; inactive means above about -30%; further: on the % scale 0 is the no-effect control and ±100 the full control effect
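Protein mix (5X: 125 nM each GST-E1A, His-CtBP) was incubated with pinned compound 2 h at 37 deg C in dark, in 50 mM Tris pH 8.0 buffer with 300 mM NaCl. Glutathione donor and nickel acceptor beads followed; AlphaScreen signal read after 1 h.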
ClpP mod: qHTS Assay for Activators of ClpP | purified B. subtilis ClpP, FRET peptide cleavage, 20 min | hit rate 1.9% among 340,000 | AID 651965, 2013 | Potency, µM (titrated, usually from 57.5 µM), for the others: top-dose activity change, negative = active; active = well fitted falling curve with a large enough effect; inconclusive = small, poorly fitted or top-dose-only effect; inactive = no such curve, though single readings can be large or run the other way; further: potency means the concentration at half of the fitted maximal effect; the source files actives as falling curves though it sought activators and does not explain the sign; nearly all actives have a fitted effect of over 65% in size; many hits overshoot -100%
Target sequence (P80244 whole entry, looked up): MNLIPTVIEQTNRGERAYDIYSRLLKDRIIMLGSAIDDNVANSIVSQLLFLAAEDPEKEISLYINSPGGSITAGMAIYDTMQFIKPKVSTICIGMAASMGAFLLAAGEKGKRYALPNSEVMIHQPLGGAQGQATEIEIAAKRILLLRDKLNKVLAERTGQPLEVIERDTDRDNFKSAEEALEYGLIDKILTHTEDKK
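Buffer: 100 mM Tris/HCl pH8, 100 mM KCl, 0.05% low protease BSA, 2.5% glycerol, 0.01% Tween-20. ClpP 10 microg/mL final; 20 min RT; delta FRET normalized to ADEP and DMSO controls.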
Active calls of the source: *; u = inconclusive; x = no result given; & = joins results of further samples; [ ] = dose if it differs, or a comment.

SMILES | Sfp PPTase inh | TRPV1 PAM | gsp antagonist | Menin-MLL FL inh | gsp ag | CtBP-E1A blk | ClpP mod
COc1ccc(-c2csc(Nc3ccccc3)[n+]2CC(O)c2ccc([N+](=O)[O-])cc2)cc1 (centres undefined) | -6.8% | u | -3.6% | 0.0 | u | -27.9 | -2.1%
O=C(CSc1nnc(CN2CCCCCC2=O)n1-c1ccccn1)NCC(F)(F)F | 2.8% | 1.9 | 0.0% | -0.4 | u | 5.3 | -1.3%
COc1ccc(NS(=O)(=O)c2ccc3c(c2)oc(=O)n3C)cc1Cl | -8.8% | -7.7 | -12.9% | 0.7 | -20.3% | x | -4.2%&-0.7%
CCN1CCN(CC(=O)Nc2nc3ccc(C)cc3s2)CC1 | 16.8% | -5.6 | 13.1% | 3.6 | -12.2% | x | 0.6%
O=C(O)c1c[nH]c2c([N+](=O)[O-])cccc2c1=O | x | x | 6.2% | x | -4.9%[15.4 µM] | -5.7 | 0.8%
CCN(CC)CCNC(=O)c1cc([N+](=O)[O-])c(N(C)C)cc1OC | -0.4% | 29.6 | 8.5% | 4.6 | -30.7%[15.4 µM] | 2.4 | x
CC(=O)c1cccc(OCc2cc(C(=O)NCCC3=CCCCC3)no2)c1 | 3.7% | -25.9 | -12.3% | x | u | 1.4 | 0.2%
Cc1ccc(C(=O)NN2C(=O)/C(=C/c3cccn3C)SC2=S)cc1 | 20µM* | -6.2 | -30.8% | u | -0.5%[15.4 µM] | u | 2.7%
Cc1ccc2c(C)c(C(=O)N3CCN(Cc4ccccn4)CC3)oc2c1C | 6.2% | -14.3 | -9.6% | x | -5.7% | -3.7 | -1.6%
NC1=NC(=O)C(CC(=O)NCc2ccccc2)S1 (centres undefined) | -13.8% | 3.3 | 8.0% | 2.8 | 11.1% | -8.6 | -1.9%
C/C(=N\NC(=O)c1c[nH]c2ccccc12)c1ccc2c(c1)OCO2 | -7.7% | -1.9 | 35.1%[activator] | -4.2 | 1.5% | x | -6.7%
CN1CCC(N(C)C(=O)c2cccc(S(=O)(=O)N3CCOCC3)c2)CC1 | x | -8.2 | 20.4% | x | 2.0% | 7.0 | 1.6%
N#CCCN(C(=O)COC(=O)CNC(=O)c1ccc(-c2ccccc2)cc1)c1ccc(F)cc1 | x | -6.0 | -16.9% | x | 4.7% | -24.8 | -15.3%
CN(C)c1ccc(NC(=O)CCn2c(=S)oc3ccccc32)cc1 | 0.9% | 1.1 | -6.3% | 1.9 | -8.6% | -16.4 | 0.5%
N#C/C(=C/C1=C(N2CCOCC2)C(=C/c2ccc(Cl)cc2)/CC1)C(=O)Nc1ccccc1F | x | x | 9.3% | x | -11.6% | 14.7 | -2.5%
CN1CCN(NC(=S)Nc2ccc(Oc3ccccc3)cc2)CC1 | -4.6% | -8.5 | 0.9% | -1.5 | -12.0% | -0.2 | x
C/C(=N\NC(=O)c1c(Cl)c(C)nn1C)c1ccc(NC(=O)C2CCC2)cc1 | 6.8% | 3.8 | -3.6% | x | u | 0.4 | 71.2%
CCOC(=O)C1=C(C)c2ccccc2OC1(C(=O)OCC)C(C)C (centres undefined) | 5.7% | x | -9.9% | 1.0[94.6 µM] | x | -9.9 | -4.7%
CC(=O)O[C@H]1CC[C@H]2[C@@H]3CCc4cc(O)ccc4[C@H]3CC[C@]12C | 10.9% | -3.7 | -6.0% | 1.3 | x | 0.7 | -0.2%
O=C(/C=C/c1ccco1)NCC(=O)N/N=C/c1ccc(Cl)cc1 | 0.8% | -0.4 | 1.1% | -0.5 | 13.5% | -11.6 | -2.9%

Copied from the list.
CCN(CC)CCNC(=O)c1cc([N+](=O)[O-])c(N(C)C)cc1OC in TRPV1 PAM shows 29.6
COc1ccc(NS(=O)(=O)c2ccc3c(c2)oc(=O)n3C)cc1Cl in ClpP mod shows -4.2%&-0.7%
CC(=O)c1cccc(OCc2cc(C(=O)NCCC3=CCCCC3)no2)c1 in TRPV1 PAM shows -25.9

Next section.
SMILES | Sfp PPTase inh | TRPV1 PAM | gsp antagonist | Menin-MLL FL inh | gsp ag | CtBP-E1A blk | ClpP mod
CNC(=S)NNC(=O)c1sc(-c2cc(C)on2)nc1C | 9.1% | 6.6 | -14.9% | -2.4 | -2.1%[15.4 µM] | -3.3 | 0.0%
CCCn1nc(NC(=O)c2ccccn2)c2cc3cc(C)ccc3nc21 | u | 7.1 | -26.9% | 3.3 | -16.7% | 18.5 | u
COCCSc1ccccc1C(=O)Nc1cc(C)on1 | 31.6µM* | -6.4 | -0.4% | 0.7 | -5.6% | 4.6 | 0.3%
CC(=O)Nc1ccc(N(C(=O)Cc2c[nH]c3ccccc23)C(C(=O)NC2CCCCC2)c2ccco2)cc1 (centres undefined) | 10.0% | 2.4 | -13.6% | 4.6 | u | -5.3 | -27.2%
Cc1cc(-c2nnc3sc(C4CCCCC4)nn23)n[nH]1 | 7.6% | x | 8.8% | 2.8 | 2.7% | -0.3 | -1.2%
O=S1(=O)CCC(N=Cc2cc(Br)ccc2O)C1 (centres undefined) | -1.9% | -4.5 | 1.7% | -0.3 | -7.2% | 5.1 | -3.8%
COc1ccc(C(CNc2ccc(C(F)(F)F)cn2)N(C)C)cc1OC (centres undefined) | 7.9% | -6.3 | 9.2% | 0.4 | 4.4%[15.4 µM] | -8.7 | x
COc1ccc(C(=O)COc2ccccc2C#N)cc1 | 16.1% | 4.1 | -1.9% | -0.5 | 9.5%[15.4 µM] | -21.8 | -0.7%
Cc1ccc(-c2nc(SC(C)C(=O)NC3CC3)n[nH]2)cc1 (centres undefined) | x | x | x | x | -69.7%[inhibitor] | 3.5 | 1.6%
COc1ccc(NC(=O)c2cc(-c3ccccn3)nc3ccccc23)c(OC)c1 | x | x | -19.1% | x | 5.5% | -19.2 | x
O=C(Nc1ccc(N2CCCCC2)cc1)C1CCCN1S(=O)(=O)c1ccc(F)cc1 (centres undefined) | x | -4.4 | -6.9% | x | u | x | 2.1%
COCCN1C(=S)NC(c2cccc(C(F)(F)F)c2)C(C(=O)N2CCOCC2)=C1C (centres undefined) | 18.0% | 5.3 | 11.0% | -4.6 | -3.5%[15.4 µM] | 9.9 | -6.5%
Cc1cccc(NC(=O)C2CCCN2C(=O)NC2CCCCC2)c1 (centres undefined) | 4.3% | -5.0 | 6.8% | 4.1 | -52.0%[inhibitor] | x | 2.5%
Cc1ccc(N2CC(C(=O)OCC(=O)C(C)(C)C)CC2=O)cc1 (centres undefined) | 6.4% | -8.3 | 1.7% | 0.6 | 16.0% | 3.8 | 0.1%
CCOC(=O)c1nn(-c2ccccc2F)c2nc(Nc3ccccc3)cc(=O)n12 | -1.7% | 1.5 | 28.6% | -1.4 | 2.9% | 3.4 | -13.7%
O=C(CCCCCNC(=O)N1CCn2c1nc1ccccc12)NCCc1ccccc1 | 8.7% | 10.9 | -20.2% | 0.0 | u | -5.4 | 0.2%
COc1ccc(-c2noc(N3CCC(C(=O)Nc4ccc(OC)cc4OC)CC3)n2)cc1 | -5.2% | 2.4 | -19.5% | -2.4 | -40.8% | -0.1 | 0.6%
O=C(COc1cccc(F)c1)NNC(=O)Cc1ccc(Br)cc1 | x | 11.8 | 11.9% | x | -18.6% | -3.7 | -1.8%
CCOC(=O)c1c(C)[nH]c(NC(=O)Nc2c(C)n(C)n(-c3ccccc3)c2=O)c1C | -9.5% | 14.0 | 0.9% | -13.0 | -55.5% | 0.0 | -3.0%
CCc1ccccc1NC(=S)/N=C(\N)Nc1nc(C)c2cc(C)ccc2n1 | -10.6% | 29.4 | -1.6% | 16.1 | -1.3% | 16.9 | u

One compound at a time, from the list above. Values in the order: Sfp PPTase inh	TRPV1 PAM	gsp antagonist	Menin-MLL FL inh	gsp ag	CtBP-E1A blk	ClpP mod
Profile of COc1ccc(-c2noc(N3CCC(C(=O)Nc4ccc(OC)cc4OC)CC3)n2)cc1 : -5.2%	2.4	-19.5%	-2.4	-40.8%	-0.1	0.6%
Profile of COCCSc1ccccc1C(=O)Nc1cc(C)on1 : 31.6µM*	-6.4	-0.4%	0.7	-5.6%	4.6	0.3%
Profile of CCCn1nc(NC(=O)c2ccccn2)c2cc3cc(C)ccc3nc21 : u	7.1	-26.9%	3.3	-16.7%	18.5	u

Later entries.
SMILES | Sfp PPTase inh | TRPV1 PAM | gsp antagonist | Menin-MLL FL inh | gsp ag | CtBP-E1A blk | ClpP mod
CCOc1ccccc1NC(=O)C1CCCN(C(=O)Nc2ccccc2)C1 (centres undefined) | 13.1% | 4.5 | 14.1% | 2.9 | 5.1% | -0.5 | 3.4%
COc1ccc2c(Cl)c(C(=O)NCCc3ccc(S(N)(=O)=O)cc3)sc2c1 | -8.0% | -8.1 | -6.8% | 2.8 | -6.6%[15.4 µM] | -0.4 | 14.1µM*
CC(C)(C)OC(=O)C[C@@H]1C/C=C\C[C@H](CC(=O)NCCO)C(=O)N[C@@H](Cc2ccccc2)COC1=O | x | x | 1.4% | x | -6.8% | x | -1.2%
N#C/C(=C\c1ccncc1)c1nc2ccccc2[nH]1 | 2.6% | -2.2 | -7.7% | 8.1 | 28.8% | 1.8 | x
CC(OC(=O)CCN=C1NS(=O)(=O)c2ccccc21)C(=O)Nc1ccc(F)cc1 (centres undefined) | x | 3.0 | 7.0% | x | 14.1%[15.4 µM] | -4.0 | -1.6%
Cc1ccc(NC(=O)CNc2cccc(C)c2C)c(C)c1 | 3.3% | 1.5 | u | 0.6 | -9.1% | 0.0 | -0.8%
COc1cc(OC)cc(C(=O)N/N=C/c2ccc(OC)c(COc3ccc(F)cc3)c2)c1 | 16.9% | -44.5 | 23.0% | 3.8 | 5.7%[15.4 µM] | -0.7 | -5.3%
Cc1ccc(NC(=O)CCC(=O)NNC(=S)Nc2ccc(F)cc2)c(C)c1 | 22.4% | 10.6 | 9.1% | -3.7 | u | 2.0 | x
CCCc1nc2c(=O)[nH]c3ccccc3c2o1 | -2.6% | 27.7 | 9.9% | x | -12.4% | -2.3 | -9.0%
O=C(O)c1cnn2c1C(=O)N(Cc1cccs1)CC2 | 7.7% | 4.9 | 1.4% | -4.9 | 6.4%[15.4 µM] | 24.1 | x
Cc1sc2ncnc(N[C@@H](CCC(=O)O)C(=O)O)c2c1C | 9.0% | -3.3 | -1.9% | 0.8 | u | 3.3 | -1.4%
